D2 agonist: human D2 receptor agonism in beta-arrestin assay; P14416; DiscoveRx PathHunter D2 beta-arrestin, luminescence, 90 min; 100% = 57 uM dopamine signal; activation, % (no concentration beside the values); 360,000 compounds, 0.084% hits; AID 624465; in the data active = activation above about 40%; inconclusive = about 15% to 40%; inactive = below about 15%; further: compound concentration not given in the record; the text of the record calls up to 30% inactive
Target sequence (P14416 whole entry, looked up): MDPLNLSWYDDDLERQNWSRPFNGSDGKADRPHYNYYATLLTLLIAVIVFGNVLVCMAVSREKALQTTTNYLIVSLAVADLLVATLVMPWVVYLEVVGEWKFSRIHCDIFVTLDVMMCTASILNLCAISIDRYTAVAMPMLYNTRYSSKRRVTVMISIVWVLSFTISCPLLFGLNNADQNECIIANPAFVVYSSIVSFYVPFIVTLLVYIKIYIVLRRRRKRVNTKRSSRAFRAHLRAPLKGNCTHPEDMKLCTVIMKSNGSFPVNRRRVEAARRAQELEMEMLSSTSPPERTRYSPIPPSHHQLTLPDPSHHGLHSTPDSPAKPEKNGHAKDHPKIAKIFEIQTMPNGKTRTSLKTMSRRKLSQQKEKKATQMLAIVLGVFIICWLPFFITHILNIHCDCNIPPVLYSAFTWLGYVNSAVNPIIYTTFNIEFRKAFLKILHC
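Agonist mode: compounds alone added to overnight-plated D2 PathHunter cells for 90 min at 37 C, with 57 uM final dopamine (EC100) defining full response. Beta-arrestin recruitment detected by chemiluminescent reagent, read after 1 h at ambient temperature.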
PINK1 expr mod: PINK1 expression modulation. PINK1 immunofluorescence, high-content cytometry, 24 h. Potency, µM (doses to about 76.6 µM), inactives show at the highest dose activation (PINK1 increase), usual class: activators. 410,000 compounds, 0.2% hits. AID 624263; active = well fitted activation curve with a large enough effect; inconclusive = small, poorly fitted or top-dose-only effect; inactive = flat fitted curve, though single readings scatter; cell line not stated here;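 further: potency means the concentration at half of the fitted maximal effect; % of control where 0% means no effect; nearly all actives have a fitted effect of over 65% in size; a mitochondrial uncoupler was the plate control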
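Fluorescence from anti-PINK1 antibody, together with nuclear and cell stains, was scanned on a laser-scanning cytometer. Before staining, stable-line cells were incubated 24 hours with compounds at 5 concentrations; primary antibody 12 h at 10 degrees C.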
TRPML1 inh: human mucolipin-1 channel inhibition. TRPML1-inducible cells, Ca2+ dye fluorescence, FDSS; hits give low values; inhibition of EC80 agonist-evoked calcium signal. 390,000 compounds, 0.02% hits. activity change, negative = inhibition, % (test concentration not listed). Q9GZU1; in the data active means activity change below about -50%; inconclusive means about -30% to -50%; inactive means above about -30%;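 further: stimulus is agonist 54-4 at its EC80 concentration; on the % scale 0 is the no-effect control and ±100 the full control effect; compound concentration not given in the record; the text of the record puts the active cut at -80%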
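TRPML1-DL cells, Tet-induced overnight (~16 h, 37 °C) at 1,500 cells/well, were loaded with Ca8 no-wash dye plus quencher for 45-90 min at room temperature. Compounds were pinned during FDSS kinetic reading; agonist 54-4 at EC80 (4 uM final) then added.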
TRPML1 agonist: agonists of human TRPML1 channel. activation, % (test concentration not listed). TRPML1-expressing cells, Ca2+ dye fluorescence, FDSS; host cell line not named in the record; reference of the full effect not given here. Q9GZU1. 410,000 compounds, 0.12% hits. AID 624414; in the data active = activation above about 50%; inconclusive = about 30% to 50%; inactive = below about 30%; further: 0% is about no effect; the text of the record puts the active cut at 80%
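Calcium fluorescence on an FDSS kinetic reader gave the read-out. Tet-induced TRPML1-DL cells were plated overnight, dye-loaded (Ca8 with quencher, 45-90 min, room temperature, dark), then read 110 s after compound addition, and again 110 s after 4uM final 54-4 (EC80).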
Six1-Eya2 blk: blocks human Six1 binding to Eya2. AID 651725. 360,000 compounds, 0.56% hits. activity change, % (no concentration beside the values). AlphaScreen GST-Six1/His-Eya2 binding, biochemical; hits give low values; control for the full effect not named in the record. Q15475+O00167; in the data active = activity change below about -65%; inconclusive = about -30% to -65%; inactive = above about -30%; further: on the % scale 0 is the no-effect control and ±100 the full control effect
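Compounds are tested against tagged Six1 and Eya2 proteins bridged by glutathione donor and nickel acceptor beads; after a one-hour incubation at 37 °C without light, AlphaScreen emission is recorded.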
D2 PAM: potentiates the human D2 dopamine receptor allosterically | DiscoveRx D2 beta-arrestin cells, luminescence, 90 min; 100% = 57 uM dopamine signal | potentiation, % (concentration not given with the values) | 360,000 compounds, 0.23% hits | AID 624464; active = potentiation of 50% or more; inconclusive = 30% to 50%; inactive = 30% or less;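 further: tested on top of an EC20 dose of dopamine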
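PathHunter D2 cells, attached overnight at 37 deg C, received compound in DMSO plus dopamine at EC20 (50 nM final) for 90 min at 37 deg C. Beta-arrestin recruitment was read as luminescence after 1 h with detection reagent at ambient temperature.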
Numbers without * were called inactive; nt = no result given; [ ] = dose if it differs, or a comment.

structure | D2 agonist | Six1-Eya2 blk | TRPML1 inh | TRPML1 agonist | PINK1 expr mod | D2 PAM
CC(C)COP(=O)(c1ccc(N(C)C)cc1)C(Nc1ccccc1)c1cccnc1 (configuration not stated) | -3.2 | -7 | -11 | 4.3 | -2.0% | -13
Cc1cc(OCc2nnc(SC(C)C(=O)O)n2-c2ccccc2)ccc1Cl (configuration not stated) | -1.2 | -4 | -8 | 0.0 | -0.1% | -3
Cc1ccc(NS(=O)(=O)c2ccc3c(c2)NC(=O)CO3)c(C)c1 | -4.3 | 7 | 0 | -0.4 | 2.6% | 2
COc1ccc(CCNc2nc(-c3cccc(NC(C)=O)c3)cs2)cc1OC | 4.1 | -8 | 3 | -0.3 | 6.1% | 0
Cc1cn(CC(=O)NCCc2ccccn2)c(=O)[nH]c1=O | -1.9 | 3 | -1 | 0.2 | 0.2% | -3
COc1cccc(NC(=O)c2cc3ccccc3cc2OC)c1 | -5.0 | 3 | nt | nt | 0.2% | -10
CCC(Sc1nc2ccccc2[nH]1)C(=O)Nc1ccc(NC(C)=O)cc1 (configuration not stated) | 3.5 | 7 | 0 | 0.1 | 1.1% | -4
CCCCN(C(=O)c1cccc(S(=O)(=O)N2CC(C)OC(C)C2)c1)c1c(N)n(CC(C)C)c(=O)[nH]c1=O (configuration not stated) | -1.9 | 5 | 5 | -0.2 | -0.3% | 6
COCCNc1nc(Oc2cccc(NC(C)=O)c2)c2sccc2n1 | 7.2 | 7 | nt | -0.5 | -0.8% | -6
O=C(OCc1ccccc1)/C(=C/c1cccc2ccccc12)NC(=O)c1ccccc1 | -4.9 | -5 | 14 | 2.2 | 7.1% | -6
N#CC(C(=O)NCCc1ccccc1)c1nc2ccccc2nc1N1CCCCC1 (configuration not stated) | -1.1 | 3 | 7 | 0.0 | 5.2% | -5
COCC(=O)NCCNc1nc2ccc(C)cc2cc1C | -3.8 | 6 | -13 | -0.6 | -0.2% | -12
O=C(Cn1cc2c(n1)CCCCC2)Nc1ccccc1Br | -0.5 | 8 | 14 | 0.8 | 4.4% | -7
Cc1occc1C(=O)N/N=C/C(Br)=C\c1ccccc1 | 4.5 | -9 | 0 | 1.4 | 1.9% | -13
CC1=NNC(=O)C1Cc1ccccc1 (configuration not stated) | 6.4 | -8 | -26 | 1.0 | 0.2% | 1

structure | D2 agonist | Six1-Eya2 blk | TRPML1 inh | TRPML1 agonist | PINK1 expr mod | D2 PAM
CCOC(=O)c1ccc(NC(=O)c2csnn2)cc1 | nt | nt | 2 | 0.2 | -0.9% | nt
CC1CCN(S(=O)(=O)c2ccc(NC(=O)[C@@H]3CCCC[C@@H]3C(=O)O)cc2)CC1 | 4.1 | 6 | -10 | -0.3 | 1.1% | -6
COc1ccc(OC)c(NC(=O)CN2C(=O)CCc3cc(S(=O)(=O)N4CCCCC4)ccc32)c1 | nt | nt | 10 | -0.7 | 0.6% | nt
CCOC(=O)c1cc(-c2ccccc2)n(-c2cccc(C(=O)N(C)c3ccc(C)cc3)c2)c1C | nt | nt | 48 | 2.4 | 1.1% | nt
Cc1ccc(C(C)(C)C)cc1S(=O)(=O)NC(=O)c1ccccc1 | 1.2 | 1 | 47 | -0.8 | 0.2% | 1
Cc1ccc(CNC(=O)CCC2CCCN(Cc3c(C)nn(C(C)C)c3C)C2)o1 (configuration not stated) | -6.0 | 0 | 30 | 0.4 | 0.2% | -14
Cc1ccc(Oc2ncccc2NC(=O)CC(CC(=O)O)c2ccccc2)c2c1CCC2 (configuration not stated) | -1.7 | 0 | -6 | 0.2 | 0.3% | -1
COc1cc(Cl)c(C)cc1NC(=O)CN1CCN(C(=O)C2CC2)CC1 | 5.7 | 1 | -13 | 3.5 | 4.7% | 0
CC1=C(C(=O)OCCOC(C)C)C(c2cccc3ccccc23)NC(=O)N1 (configuration not stated) | -2.5 | -6 | 12 | -0.2 | 0.5% | -1
Cc1ccc(-c2noc(CNCCCN(C)C)n2)cc1 | -8.7 | 0 | -8 | -1.0 | -0.1% | 0
COC(=O)c1ccc2c(=O)n(Cc3ccco3)c(SCC(=O)Nc3cc(C)on3)nc2c1 | -1.0 | -1 | -7 | -0.8 | 1.0% | -3
N#Cc1c(-c2ccccc2)nc(N2CCCCCC2)[nH]c1=O | 0.2 | 4 | 11 | 2.0 | -2.0%[38.3 µM] | -14
CC1CCN(c2oc(-c3ccc(COc4ccccc4)o3)nc2C#N)CC1 | nt | nt | 7 | 0.5 | -0.3% | nt
O=C(CN1CCC(Cc2ccccc2)CC1)NC(=O)NCc1ccccc1 | -1.4 | 6 | -11 | 2.3 | -1.8% | -9
O=Nc1ccc(O)c2ncccc12 | -0.2 | -89* | 8 | -0.4 | 8.7% | -16

By substructure: those above with an aryl methoxy group (4)
structure | D2 agonist | Six1-Eya2 blk | TRPML1 inh | TRPML1 agonist | PINK1 expr mod | D2 PAM
COc1ccc(CCNc2nc(-c3cccc(NC(C)=O)c3)cs2)cc1OC | 4.1 | -8 | 3 | -0.3 | 6.1% | 0
COc1cccc(NC(=O)c2cc3ccccc3cc2OC)c1 | -5.0 | 3 | nt | nt | 0.2% | -10
COc1ccc(OC)c(NC(=O)CN2C(=O)CCc3cc(S(=O)(=O)N4CCCCC4)ccc32)c1 | nt | nt | 10 | -0.7 | 0.6% | nt
COc1cc(Cl)c(C)cc1NC(=O)CN1CCN(C(=O)C2CC2)CC1 | 5.7 | 1 | -13 | 3.5 | 4.7% | 0

An excerpt of these results, with each value named.
CCOC(=O)c1ccc(NC(=O)c2csnn2)cc1
  D2 agonist = nt; Six1-Eya2 blk = nt; TRPML1 inh = 2; TRPML1 agonist = 0.2; PINK1 expr mod = -0.9%; D2 PAM = nt

CC1CCN(S(=O)(=O)c2ccc(NC(=O)[C@@H]3CCCC[C@@H]3C(=O)O)cc2)CC1
  D2 agonist = 4.1; Six1-Eya2 blk = 6; TRPML1 inh = -10; TRPML1 agonist = -0.3; PINK1 expr mod = 1.1%; D2 PAM = -6

COc1ccc(OC)c(NC(=O)CN2C(=O)CCc3cc(S(=O)(=O)N4CCCCC4)ccc32)c1
  D2 agonist = nt; Six1-Eya2 blk = nt; TRPML1 inh = 10; TRPML1 agonist = -0.7; PINK1 expr mod = 0.6%; D2 PAM = nt

Reformatted with two lines to a compound: entries from further up.
Every second line gives: D2 agonist, Six1-Eya2 blk, TRPML1 inh, TRPML1 agonist, PINK1 expr mod, D2 PAM
Cc1ccc(-c2noc(CNCCCN(C)C)n2)cc1
    -8.7, 0, -8, -1.0, -0.1%, 0
COc1cc(Cl)c(C)cc1NC(=O)CN1CCN(C(=O)C2CC2)CC1
    5.7, 1, -13, 3.5, 4.7%, 0
CC1CCN(S(=O)(=O)c2ccc(NC(=O)[C@@H]3CCCC[C@@H]3C(=O)O)cc2)CC1
    4.1, 6, -10, -0.3, 1.1%, -6
O=C(OCc1ccccc1)/C(=C/c1cccc2ccccc12)NC(=O)c1ccccc1
    -4.9, -5, 14, 2.2, 7.1%, -6

Next section:
structure | D2 agonist | Six1-Eya2 blk | TRPML1 inh | TRPML1 agonist | PINK1 expr mod | D2 PAM
c1ccc(OCCN2C3=NCCN3c3ccccc32)cc1 | -0.7 | -4 | -4 | 0.4 | -0.7% | -16
Nc1ccc(C(=O)OCc2nc3cc4ccccc4cc3[nH]2)cc1 | 1.2 | -2 | -16 | 1.1 | 0.0% | -1
CCOc1ccc(N(C)S(=O)(=O)c2ccc(C)c(C(=O)Nc3nnc(C4CC4)s3)c2)cc1 | -1.3 | -18 | 12 | -0.3 | 2.3% | -7
CCOC(=O)C1CCCN(C(=O)c2cc(S(=O)(=O)N3CCCCCC3)ccc2OC)C1 (configuration not stated) | -0.3 | 1 | -9 | 0.6 | 3.0% | 0
O=C(COC(=O)c1cccc(S(=O)(=O)N2CCCC2)c1)Nc1cccc(Br)c1 | -0.5 | -7 | 14 | -0.4 | 0.8% | -18
CC(C)c1ccc(NC(=O)Cc2ccc(NC(=O)N3CCCCc4ccccc43)cc2)cc1 | nt | nt | 15 | 2.1 | -1.3% | nt

From PubChem BioAssay

Not a hit list; about 1% have a hit in one of these screens.
